# Bioassay records: PubChem, National Center for Advancing Translational Sciences (NCATS)
# Vaccinia mCherry – inhibitors of vaccinia virus infection (mCherry reporter signal); Vaccinia virus mCherry reporter infection, fluorescence; about a quarter of the inactives have no number; 310,000 compounds, 0.63% hits; AID 720579; Potency, µM (titrated, usually from 36.5 µM), without a hit: at the top dose activity change, negative = inhibition, usual class: inhibitors; active = well fitted inhibition curve with a large enough effect; inconclusive = small, poorly fitted or top-dose-only effect; inactive = no such curve, though single readings can be large or run the other way; tested in A549 cells; note: nearly all actives have a fitted effect of over 35% in size; inactives centre near -10
# VACV Venus inh – vaccinia inhibition (Venus reporter) | 330,000 compounds, 0.46% hits | Potency, µM (series often up to 36.5 µM), without a hit: at the top dose activity change, negative = inhibition, actives largely listed as inhibitors | Vaccinia virus Venus reporter expression, fluorescence; active means well fitted inhibition curve with a large enough effect; inconclusive means small, poorly fitted or top-dose-only effect; inactive means no such curve, though single readings can be large or run the other way; tested in A549 cells; note: nearly all actives have a fitted effect of over 30% in size; inactives centre near -10
# * marks the source's active call; other numbers are inactive results; i = inactive; u = inconclusive; x = not tested or not shown; & = joins results of further samples; [ ] = another dose, or the depositor's remark. % is set by controls: 0 for no effect and ±100 for the full control effect; potency is the fitted concentration of half-maximal effect.
SMILES,Vaccinia mCherry,VACV Venus inh
CCCCN(C)C(=O)C1CCN(Cc2ccccn2)CC1,-4%,0%
Cc1nc2ccc(S(=O)(=O)N(C)CC(=O)NCc3ccc(N(C)C)cc3)cc2s1,-9%,-6%
CC1Sc2ccc(S(=O)(=O)CCC(=O)N3CCc4ccccc43)cc2NC1=O (stereo not given),-8%[7.34 µM],3%[7.34 µM]
Cc1ccc(N2CC(NC(=O)c3ccc(Br)o3)CC2=O)cc1C (stereo not given),-6%[7.34 µM],-9%[7.34 µM]
COc1cccc(NC(=O)NC2(C(F)(F)F)Oc3ccccc3O2)c1,u,-24%
CCOC(=O)c1cccc(NC(=O)CCn2c(=O)oc3ccccc32)c1,-14%&-2%,3%&-5%
Cn1c(=O)[nH]c(=O)c2c1nc(OC(=O)c1ccccc1)n2CC(O)COc1ccccc1 (stereo not given),x,-9%
Clc1ccccc1C1=CC(c2ccco2)n2nnnc2N1 (stereo not given),u,-1%
CCOCc1cc(CN2CCN(c3cccc(Cl)c3)CC2)c(O)c2ncccc12,u,-21%[7.34 µM]
Nc1nnc(SCC(=O)Nc2nccs2)s1,-10%,-7%
Cc1ccc(C)c(NS(=O)(=O)c2ccc3c(c2)NC(=O)CO3)c1,-2%,-17%
CC1=NOC(=O)/C1=C/c1ccc(O)c(Cl)c1,0%,-4%
Cc1[nH]c2ccccc2c1CCNC(=O)c1ccc2nccnc2c1,-12%,-8%
COc1ccc(CCNC(=O)C2CCCN(S(=O)(=O)N3CCCCCC3)C2)cc1OC (stereo not given),i[7.34 µM],7%[7.34 µM]
O=C1/C(=C\c2ccc(Br)o2)Cc2ccccc21,0%,-2%
COc1cccc(-n2nc(C(C)=O)c(=O)[nH]c2=O)c1,-7%,1%
CC(C)c1ccc(NC(=O)CN2C(=O)NC(C)(C3CC3)C2=O)cc1 (stereo not given),-13%,-28%
CC(=O)c1ccc(NC(=O)COc2ccccc2-c2nc(C)no2)cc1,10%,16%
CCCCC(=O)Nc1ccc(C(=O)N2CCCC(C(=O)OCC)C2)cc1 (stereo not given),-10%,-7%
O=[N+]([O-])c1ccc(/C=[N+](\[O-])CCO)o1,i,-19%

# In the list so far, these contain a furan ring, fused or not:
SMILES,Vaccinia mCherry,VACV Venus inh
Cc1ccc(N2CC(NC(=O)c3ccc(Br)o3)CC2=O)cc1C (stereo not given),-6%[7.34 µM],-9%[7.34 µM]
Clc1ccccc1C1=CC(c2ccco2)n2nnnc2N1 (stereo not given),u,-1%
O=C1/C(=C\c2ccc(Br)o2)Cc2ccccc21,0%,-2%
O=[N+]([O-])c1ccc(/C=[N+](\[O-])CCO)o1,i,-19%

# Other entries.
SMILES,Vaccinia mCherry,VACV Venus inh
COc1ccc(-n2c(SCC(N)=O)nc3c(oc4ccccc43)c2=O)cc1,1%,2%
CCOc1ccccc1NC(=O)NC1(C(=O)NCC2CCCO2)CCCCC1 (stereo not given),-8%,-5%
CCC(C)C(NC(N)=O)C(=O)Nc1ccc(OCc2ccccc2)cc1 (stereo not given),-12%,-9%
COc1ccc(Cl)cc1NC(=O)c1sc2nc(-c3ccc(OC)c(OC)c3)ccc2c1N,8%,-2%
COc1cc(NS(=O)(=O)c2ccc(NC(=O)c3ccc(C)o3)cc2)nc(OC)n1,-3%,-10%
CSC1=C(C#N)C(C)C2=C(CC(C)(C)CC2=O)N1 (stereo not given),x,-33%
O=C(c1ccccc1)N(CCCl)C(=O)N(CCCl)C(=O)c1ccccc1,-6%,-13%
Cc1nnc(N2CCC(C(=O)NC3CCC(C)CC3)CC2)c2nn(-c3ccc(Cl)cc3)c(C)c12 (stereo not given),-22%,-21%
COc1ccc(-c2cc(NC(C)=O)c3ncc(-c4cccc(C(C)=O)c4)n3c2)cc1OC,18%,-14%
COc1cc(C(=O)Nc2cccc(-c3nncn3C)c2)cc(OC)c1OC,-16%[1.46 µM],-11%

# Two compounds picked at random from the list so far:
SMILES,Vaccinia mCherry,VACV Venus inh
COc1cc(NS(=O)(=O)c2ccc(NC(=O)c3ccc(C)o3)cc2)nc(OC)n1,-3%,-10%
CCOc1ccccc1NC(=O)NC1(C(=O)NCC2CCCO2)CCCCC1 (stereo not given),-8%,-5%

# Next section.
SMILES,Vaccinia mCherry,VACV Venus inh
Cc1cccc2cc(CN(CCCO)C(=O)Nc3ccc(Cl)cc3)c(=O)[nH]c12,x,-16%
Cc1cc(NS(=O)(=O)c2ccc(NC(=O)COc3ccccc3C(C)(C)C)cc2)no1,-19%,-12%
C[C@@H]1CN([C@H](C)CO)S(=O)(=O)c2ccc(Br)cc2O[C@H]1CN(C)C(=O)Nc1ccc(F)cc1,-8%,-22%
O=c1nc(Nc2ccccc2)oc2ccccc12,-14%[7.34 µM],-7%[7.34 µM]
CC1(C(=O)Nc2ccccc2F)CCN1C(=O)Cc1ccc(-c2ccccc2)cc1 (stereo not given),i,-15%
Cc1cccc(S(=O)(=O)N(C)C[C@@H]2OCc3cnnn3CCCC(=O)N([C@@H](C)CO)C[C@@H]2C)c1,1%,-8%
COc1ccc(/C=C(/NC(=O)c2ccco2)C(=O)Nc2cccc(C(=O)O)c2)cc1,-17%,-8%
CCn1c(SCC(=O)N2CCc3ccccc32)nc2c(c1=O)SC(C)C2 (stereo not given),i,-12%
COc1cc(OC)c(NC(=O)C2CCN(S(=O)(=O)c3c(C)noc3/C=C/c3c(C)cc(C)cc3C)CC2)cc1Cl,-10%[7.34 µM],-12%[7.34 µM]
O=C(OCCCc1cc2ccccc2c(=O)o1)c1ccco1,i,-24%

# A portion of the results above, as a working copy:
SMILES,Vaccinia mCherry,VACV Venus inh
CCn1c(SCC(=O)N2CCc3ccccc32)nc2c(c1=O)SC(C)C2 (stereo not given),i,-12%
COc1cc(OC)c(NC(=O)C2CCN(S(=O)(=O)c3c(C)noc3/C=C/c3c(C)cc(C)cc3C)CC2)cc1Cl,-10%[7.34 µM],-12%[7.34 µM]

# The main list resumes, starting four compounds before the break.
SMILES,Vaccinia mCherry,VACV Venus inh
COc1ccc(/C=C(/NC(=O)c2ccco2)C(=O)Nc2cccc(C(=O)O)c2)cc1,-17%,-8%
CCn1c(SCC(=O)N2CCc3ccccc32)nc2c(c1=O)SC(C)C2 (stereo not given),i,-12%
COc1cc(OC)c(NC(=O)C2CCN(S(=O)(=O)c3c(C)noc3/C=C/c3c(C)cc(C)cc3C)CC2)cc1Cl,-10%[7.34 µM],-12%[7.34 µM]
O=C(OCCCc1cc2ccccc2c(=O)o1)c1ccco1,i,-24%
Cc1ccn2cc(CNS(=O)(=O)c3cccs3)nc2c1,i,-15%
COC(=O)CC1(C(=O)OC)Oc2ccccc2C(=O)N1c1ccc(F)cc1F (stereo not given),-14%,-10%
COc1ccc(NC(=O)CSc2nnnn2-c2ccc(OC)cc2)cc1,-13%,-19%
CCN1C(=O)c2cccc3c(S(=O)(=O)Nc4c(C)n(C)n(-c5ccccc5)c4=O)ccc1c23,x,-23%
O=C(NC1CCN(Cc2ccccc2)CC1)c1cccc(S(=O)(=O)Nc2ccc(Br)cc2)c1,-19%,u
O=C(c1nn2c(C(F)(F)F)cc(-c3ccccc3)nc2c1Cl)N1CCOCC1,-15%,u
COc1ccc(NC(=O)c2sccc2-n2cccc2)cc1,-5%,2%
COCCN(C(=O)CCC(=O)Nc1cc(C)on1)C(C(=O)NC1CCCC1)c1ccccc1C (stereo not given),-11%,-3%
CC(NCc1cccnc1)c1ccccc1 (stereo not given),-15%,-10%
O=C(N/C(=C\c1ccc(Br)cc1)C(=O)N1CCOCC1)c1ccccc1Cl,-16%,-3%
O=C(CCSc1nc(-c2ccco2)cc(C(F)(F)F)n1)N1CCCc2ccccc21,x,-12%
CCN(CC)S(=O)(=O)c1ccc(Cl)c(NC(=O)COc2ccc3c(C)cc(=O)oc3c2)c1,i,-7%
C=CCNC(=S)NCCCCC1NC(=S)N(CC=C)C1=O (stereo not given),-3%,-6%
COc1ccc(S(=O)(=O)Nc2ccc3c(c2)C(=O)N([C@H](C)CO)C[C@H](C)[C@@H](CN(C)C(=O)Nc2ccc(F)cc2)OCCCC[C@H](C)O3)cc1,-24%,-29%
FC(F)(F)c1ccc(Cl)c(Nc2nnc(-c3ccncc3)s2)c1,4%,3%
COc1ccc([C@H]2CC(=O)C=C(c3cc4ccccc4c4ccccc34)C2)cc1,-23%,u
Oc1ccc(Nc2ncnc3scc(-c4ccccc4)c23)cc1,0%,-29%
Cc1ccccc1OCC(=O)NNC=O,-2%,-2%
COc1cccc(C(=O)NNC(=O)Cc2cccs2)c1,i,11%
CCN(CCO)C(=O)C(c1ccccc1)c1ccccc1,x,-28%
COc1cccc(OC)c1C(=O)Nc1ccc2c(c1)CCCN2S(=O)(=O)c1ccc(C)cc1,3%,-6%
CCOc1ccc(S(=O)(=O)NCCC(=O)NC2CCC(C)CC2)cc1 (stereo not given),0%,-5%
CC(C)c1c(C(=O)NCC(C)(C)N2CCOCC2)cnn1-c1nccc(-c2cccs2)n1,-26%,-14%
CCN1CCN(c2ccc(S(=O)(=O)N3CCOCC3)cc2NC(=O)c2ccc(Cl)cc2Cl)CC1,u,-16%
COC(=O)[C@H](CC(C)C)NC(=O)Nc1ccc2c(c1)OCCO2,-14%,-1%
CCOC(=O)[C@]12CCC=C1N(Cc1ccc(Cl)cc1Cl)C(=O)[C@H](CC(=O)N1CCN(C(=O)c3ccco3)CC1)C2,-23%,-8%
O=C(Nc1cc(C(F)(F)F)ccc1-n1cncn1)c1ccc(F)cc1Cl,-13%,-5%
O=S(=O)(NN=Cc1ccc(O)cc1O)c1cc(Cl)c(Cl)cc1Cl,i,-1%
CC(C)CCn1c2ccccc2c2cc(CC(N)=O)ccc21,u,-21%
CCCCNC(=O)c1onc(CSc2ccccc2F)c1C(=O)O,-12%,1%
COC(=O)/C(C#N)=C/c1c[nH]c2ccccc12,-29%,-18%
CC(=O)c1ccc(N(C(=O)c2ccco2)C(C(=O)NC2CCCC2)c2cccs2)cc1 (stereo not given),-12%,-16%
COc1cccc(CC(=O)OCC(=O)NCc2ccc3c(c2)OCO3)c1,-26%,3%
CCCCCNC(=O)C1CC=CCC1C(=O)O (stereo not given),-14%,-16%
COc1ccc(CCN(C)C(=O)c2oc3ccccc3c2C)cc1OC,i,-10%
O=C(Nc1ccc2c(c1)oc1ccccc12)N1CCOCC1,x,-1%
Cc1cccc(-c2nc(-c3ccncc3)no2)c1,i,-11%
COc1cc2c(cc1NC(=O)COc1cc(C)cc(C)c1)oc1ccccc12,-27%,-28%
Cc1cccc(C)c1NC(=O)Cc1cccs1,-11%,-14%
CCC(=O)Nc1ccc(Cl)c(NC(=O)c2ccc(Br)o2)c1,-4%,-26%
O=C(CN1C(=O)C2CC=C(Cl)CC2C1=O)N1CCOCC1 (stereo not given),-13%,-16%
CCOC(=O)/C=C1\NC(C)(C)Cc2cc(OC)c(O)cc21,i,-13%
Cc1ccc(-n2c(SCC(=O)NCc3ccco3)nc3nc4c(cc3c2=O)COC(C)(C)C4)cc1,x,-17%
Cc1ccc(N=C2SCCCN2C(=O)C2=COCCO2)cc1Cl,i,-12%
CC(C)COc1ccc(C(=O)N2CCCCC2CCN2CCOCC2)cc1 (stereo not given),-14%,-17%
CN1CCN(C(=O)c2ccc3c(=O)n(Cc4ccc5c(c4)OCO5)c(=S)[nH]c3c2)CC1,-17%,-9%
Cc1ccccc1OCc1nc(-c2ccc(NC(=O)c3cccs3)cc2)no1,-26%,-16%
O=C(O)c1cccc(S(=O)(=O)N(Cc2ccccc2)c2ccc(Cl)cc2)c1,i,-6%
O=C(Cc1ccccc1)Nc1ncccc1Cl,-10%,-22%
Nc1nn2c(C(F)(F)F)cc(=O)[nH]c2c1N=Nc1cccc(F)c1,-11%,-9%
C=C(C)CSc1nnc([C@@H](N)Cc2ccccc2)o1,-12%,-3%
Cc1ccc(N2CC(c3nnc(Cc4ccccc4Cl)o3)CC2=O)cc1 (stereo not given),-13%,-11%

# Not a hit list; overall some 0.87% were active at least once.
